Mtb bLac sens = beta-lactam sensitization of Mtb H37Rv; M. tuberculosis H37Rv growth with meropenem, percent inhibition; hits of this screen are not shown here; inhibition, % at 25 µM; 0.27% of 330,000 active; AID 434955;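 active means about 74% or more and at least 40 points above the plate without the antibiotic, then above 30% in a dose series; inconclusive means first-round hits that could not be retested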;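 further: growth measured after seven days incubation then overnight dye step; 0% = bacteria only wells and 100% = bacteria with antibiotic; twin plates without the antibiotic show which effects depend on it; some results filed as inactive read as strong as hits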
Active calls of the source: *; ? = inconclusive. A portion of the library. The share of hits here may be higher or lower than overall.

molecule | Mtb bLac sens
CN(Cc1ccccc1)C(=O)COC(=O)CCN1C(=O)C2CC=CCC2C1=O (stereo not given) | -2
COc1cc(OC)cc(C(=O)OCC(=O)Nc2cccc(S(=O)(=O)NC3=NCCCCC3)c2)c1 | 2
O=C(CN1C(=O)NC2(CCCCC2)C1=O)NNC(=O)C1CC1 | 2
O=C(NCC1CCCO1)C1CCCN(S(=O)(=O)c2cccc(C(F)(F)F)c2)C1 (stereo not given) | -7
O=C(NCc1ccc(Cl)cc1)c1ccc(S(=O)(=O)N2CCCCC2)cc1 | -5
NS(=O)(=O)c1ccc(CCNS(=O)(=O)c2ccc(Cl)s2)cc1 | -5
C[C@H]1CN([C@@H](C)CO)C(=O)c2cc(NC(=O)NC3CCCCC3)ccc2O[C@H]1CN(C)C(=O)Nc1ccc(C(F)(F)F)cc1 | -9
CC(C)(C)OC(=O)[C@H](CCCCN)NC(=O)c1[nH]cnc1C(=O)N[C@@H](Cc1ccccc1)C(=O)OCc1ccccc1 | 12
Cn1cc(C(=O)O)c(-c2ccc3c(c2)OCCCO3)n1 | 4
COCCN(C(=O)c1c(C)noc1C)c1c(N)n(CC(C)C)c(=O)[nH]c1=O | 6
O=C(COC(=O)c1ccc(Cl)nc1)Nc1ccc(N2CCCCC2)cc1 | 4
CC(C)(O)/C=C/C[C@](C)(O)C1CC[C@]2(C)C1[C@H](O[C@H]1O[C@@H](CO)[C@H](O)[C@@H](O)[C@@H]1O)CC1[C@@]3(C)CC[C@H](O)C(C)(C)C3[C@@H](O)C[C@]12C (stereo not given in full) | 1
COc1ccc2c(C(=O)NCc3ccc4c(c3)OCO4)c(-c3ccc(S(C)(=O)=O)cc3)sc2c1 | 10
O=C(CCN1CCOCC1)NNC(=O)c1ccc(Cl)c([N+](=O)[O-])c1 | 4
CCOc1cc(N2CCOCC2)c(OCC)cc1NC(=O)CN1C(=O)N(C)C2(CCCCC2)C1=O | -4
COc1ccccc1-c1noc(COC(=O)c2ccc(Br)o2)n1 | 67
CC1CCCCC1NC(=O)Cn1cc([N+](=O)[O-])ccc1=O (stereo not given) | -5
N#Cc1ccc(CN2CCN(CC(=O)Nc3ccccc3C(=O)NC3CC3)CC2)cc1 | -3
Cc1ccc(S(=O)(=O)N2CCC(C(=O)N/N=C/c3cccn3C)CC2)cc1 | -5
CC(=O)Nc1ccc(NC(=O)C(C)Sc2nnc(-c3cccs3)o2)cc1 (stereo not given) | -3
C=CCC[C@H](Cc1ccc(F)cc1)C(=O)OC[C@@H](C)NC(=O)[C@H](CC=C)CC(=O)NCCO | -1
CCCN1CC[C@@H]2c3cc(O)ccc3CC[C@@H]21 | 1
CCN(CC)CCC(=O)O[C@H]1CC[C@]2(C)C3CC[C@@]4(C)C(CC[C@]4(C)O)C3CC[C@H]2C1 (stereo not given in full) | 5
O=C(NCCN1C(=O)S/C(=C\c2ccccc2F)C1=O)C1CC(=O)N(Cc2ccccc2)C1 (stereo not given) | -3
COc1ccccc1NC(=O)c1ccc(NC(=O)c2nc3nccc(C)n3n2)cc1 | 8
CSc1ccc(C=O)cc1 | -5
COc1ccc(S(=O)(=O)N2CCCCC2)cc1NC(=O)CCCOc1ccccc1 | -4
COc1ccc(CCNC(=O)COC(=O)/C=C/c2ccc3c(c2)OCO3)cc1OC | 1
Cc1cccc(C(=O)NNC(=O)c2ccc(NS(=O)(=O)c3cccs3)cc2)c1C | 4
CN(Cc1cccc(Cl)c1Cl)C(=O)c1cc(S(=O)(=O)N2CCOCC2)ccc1F | -7
O=C(CN(C(=O)c1csnn1)c1ccc(F)c(Cl)c1)NCc1ccc(F)cc1 | -6
CC(C)OCc1ccc(C(=O)N2CCN(S(=O)(=O)c3ccc(Br)s3)CC2)cc1 | -1
CCN(C[C@H]1N[C@@](CC)(C(=O)OC)[C@H]2C(=O)N(C)C(=O)[C@@H]12)S(=O)(=O)c1ccc(OC(F)(F)F)cc1 | -5
CC(C)N(C(=O)CN1CCN(S(=O)(=O)c2ccc(Br)s2)CC1)C(C)C | 0
CCCCn1c(CCl)nc2cc(S(=O)(=O)N3CCOCC3)ccc21 | 95
Cc1noc(C)c1C(=O)Nc1sccc1C(N)=O | -5
O=C(Nc1ccc(S(=O)(=O)Nc2ncccn2)cc1)C12CC3CC(CC(Cl)(C3)C1)C2 | 1
O=C(CSc1nc2ccccc2c(=O)n1CCCO)NC1CC1 | -5
COc1ccc(C=NNC(=O)c2ccccc2NS(=O)(=O)c2cccs2)cc1O | 10
O=C(COC(=O)c1ccc(Cl)cc1Cl)Nc1cccc(S(=O)(=O)NC2=NCCC2)c1 | 7
CC(NCC(=O)Nc1ccccc1C(=O)NC1CC1)c1ccc(F)cc1F (stereo not given) | -3
O=C(COc1ccc(S(=O)(=O)N2CCCC2)cc1[N+](=O)[O-])N1CCCC1 | -9
Nc1cccc(NC(=O)CN2CCOCC2)c1 | -5
COc1ccc(CCNC(=O)COC(=O)c2ccc([N+](=O)[O-])o2)cc1 | 89
N#Cc1ccc(C(=O)OCC(=O)NC(=O)NC2CCCCC2)cc1 | 2
COc1cccc(CNC(=O)COC(=O)c2ccc(Cl)s2)c1 | 7
COc1ccc(-c2ccc3c(=O)cc(-c4ccsc4)oc3c2)cn1 | 0
CCc1ccc(C(=O)COC(=O)c2ccccc2OC)cc1 | ?
COCCCN1C(=O)C2C(C(=O)Nc3cc(C)cc(C)c3)C3C=CC2(O3)C1C(=O)NC1CCCCC1 (stereo not given) | 0
CC(=O)Nc1ccc(SCC(=O)NC(=O)c2ccc(S(=O)(=O)N(C)C)cc2)cc1 | -2
CCC1(C2=NCCN2)Cc2ccccc2O1 (stereo not given) | -1
Cc1cc(C(=O)NNC(=O)c2cccc([N+](=O)[O-])c2)n[nH]1 | -1
Cc1cccc(NC(=O)CN(CC2CCCO2)C(=O)c2oc3ccccc3c2C)c1C (stereo not given) | 52
COc1cc(C(=O)N[C@H](C(=O)OCC(=O)NC2CCCCCC2)C(C)C)cc(OC)c1OC | 1
Cc1cc(C)c(C(N)=O)c(Nc2ccc(F)cc2)n1 | 6
CCN(C[C@H]1N[C@@](C)(C(=O)OC)[C@H]2C(=O)N(C)C(=O)[C@@H]12)C(=O)Nc1ccc(OC)cc1 | -6
COCC(=O)N(C)C[C@H]1N[C@@](C)(C(=O)OC)[C@H]2C(=O)N(Cc3ccccc3)C(=O)[C@@H]12 | 2
CC(C#N)Sc1ccc(S(=O)(=O)N(C)C2CCCCC2)cn1 (stereo not given) | -11
CC(=O)N1CCN(C(=O)c2ccc(-c3cccc(C(F)(F)F)c3)o2)CC1 | -1
Cc1ccc(C(C)C)c(OCC(=O)N2CCN(c3ncccn3)CC2)c1 | 3

Continued.
molecule | Mtb bLac sens
COC(=O)c1ccc(OCC(=O)NC2CCCCCCC2)cc1 | 3
CSc1ccc(Cl)c(C(=O)N2CCN(c3ncccn3)CC2)c1 | 2
CN(C)C(CNC(=O)CCc1nc2ccccc2s1)c1ccccc1 (stereo not given) | -3
O=C(/C=C/c1ccc(F)cc1)Nc1cccc(S(=O)(=O)N2CCOCC2)c1 | -6
Cc1nnc(SCC(=O)Nc2ccc(N3CCOCC3)cc2)n1Cc1ccccc1 | 2
CN(C(=O)c1ccc(NC(=O)Cc2ccc(NC(=O)C3CCCN(C(=O)C4CC4)C3)cc2)cc1)C1CC1 (stereo not given) | 2
COc1ccc(NC(=O)CN(C)C(=O)c2ccc(COc3ccccc3)cc2)cc1 | -5
Cc1cc(C(=O)Cn2cnc3cc(F)ccc3c2=O)c(C)n1C1CC1 | 5
COc1ccccc1NC(=O)C(C)OC(=O)C1COc2ccccc2O1 (stereo not given) | 9
CN(C)S(=O)(=O)c1ccc(C(=O)OCC(=O)c2csc(N3CCCCC3)n2)cc1 | 0
Cc1cccc(NC(=O)COC(=O)c2n[nH]c3ccccc23)c1C | -2
Nc1cccc(C#Cc2ccc3c(c2)C(=O)/C(=C/c2ccsc2)O3)c1 | 1
CC1CCN(C(=O)c2[nH]cnc2C(=O)NCc2ccc(CNC(=O)OC(C)(C)C)cc2)CC1 | 1
O=C(c1ccccc1)N1CCN(CCc2ccccc2)CC1 | 0
CCOc1ccccc1N1CCN(C(=O)c2cccc(S(=O)(=O)N3CCOCC3)c2)CC1 | 3
O=C(COC(=O)c1cccc(Cl)c1)NC1CCCCCCC1 | 0
CCN(CC)C(=O)c1ccc(NC(=O)c2ccc3c(c2)NC(=O)CS3)cc1 | 7
O=C(COC(=O)CNC(=O)c1ccc(Cl)cc1Cl)NNC(=O)c1ccccc1 | -3
COc1cc(/C=C/C(=O)OCC(=O)NCC2CCCCC2)ccc1O | 6
O=C1CN(C(=O)COc2ccc([N+](=O)[O-])cc2Cl)c2ccccc2N1 | -1
CC(C)(C)OC(=O)C[C@H]1C/C=C\C[C@@H](CC(=O)NCCO)C(=O)N2CCC[C@H]2COC1=O | 3
C[C@@]12C(=O)N(CC3CCCO3)CC(=O)N1[C@H]1c3ccccc3OC[C@@H]1[C@@H]2c1ccccc1 (stereo not given in full) | -1
CC1(C)CC(=O)C=C(c2ccc(OC(F)(F)F)cc2)C1 | -3
CN(C)C(=O)c1ccc(NC(=O)CSc2nnc(-c3cccs3)n2N)cc1 | 2
CC(C)(C)OC(=O)NCCCCCNC(=O)c1ncn(Cc2ccccc2)c1C(=O)NCCCCCNC(=O)OC(C)(C)C | -7
O=C(/C=C/c1ccccc1Cl)NNC(=O)c1ccncc1 | 4
O=C(NN=C(c1ccccc1)c1ccccn1)c1ccccc1 | 98
Cc1oc2ccc(NS(=O)(=O)c3ccc(F)cc3)cc2c1C(=O)O | 16
CCCOC(=O)c1ccccc1C(=O)OCCC | 1
Cc1ccc(C)c(OCCC(=O)Nc2cccc(S(=O)(=O)NC3=NCCCCC3)c2)c1 | -2
c1ccc2c(c1)Oc1ccccc1S2 | -6
O=C(/C=C/c1cccc([N+](=O)[O-])c1)OCC(=O)N1CCN(C(=O)c2ccco2)CC1 | 0
COc1ccc(N2CCN(C(=O)[C@H](C)N3C(=O)C4CC=CCC4C3=O)CC2)cc1 (stereo not given in full) | -12
CCc1ccc(C(=O)CN2C(=O)NC3(CCOc4ccccc43)C2=O)s1 (stereo not given) | -4
CCCC1(CCC)NC(=O)N(CC(=O)Nc2ccc(Cl)c(S(=O)(=O)N3CCOCC3)c2)C1=O | -1
CC(C)Cn1c(N)c(C(=O)COC(=O)CCc2nc3ccccc3c(=O)[nH]2)c(=O)n(C)c1=O | -4
COc1ccc(OCC#CCN2CCNCC2)cc1 | -2
COc1cc(OC)cc(C(=O)NCC(=O)OCC(=O)NC(C)CCc2ccccc2)c1 (stereo not given) | 0
COc1ccc(Cl)cc1NC(=O)COC(=O)c1cc(C)oc1C | 2
CCOc1ncccc1C(=O)OCC(=O)c1c[nH]c2ccccc12 | 6

Grouped by structure, those above with an NH in an aromatic ring.
molecule | Mtb bLac sens
CC(C)(C)OC(=O)[C@H](CCCCN)NC(=O)c1[nH]cnc1C(=O)N[C@@H](Cc1ccccc1)C(=O)OCc1ccccc1 | 12
COCCN(C(=O)c1c(C)noc1C)c1c(N)n(CC(C)C)c(=O)[nH]c1=O | 6
Cc1cc(C(=O)NNC(=O)c2cccc([N+](=O)[O-])c2)n[nH]1 | -1
Cc1cccc(NC(=O)COC(=O)c2n[nH]c3ccccc23)c1C | -2
CC1CCN(C(=O)c2[nH]cnc2C(=O)NCc2ccc(CNC(=O)OC(C)(C)C)cc2)CC1 | 1
CC(C)Cn1c(N)c(C(=O)COC(=O)CCc2nc3ccccc3c(=O)[nH]2)c(=O)n(C)c1=O | -4
CCOc1ncccc1C(=O)OCC(=O)c1c[nH]c2ccccc12 | 6

(further entries)
molecule | Mtb bLac sens
C[C@@H](O)Cc1cn(CC(=O)NCCCCCCCCCCC(=O)N2CCNCC2)nn1 | 3
COc1ccc(C(CNC(=O)Cc2ccc(-c3ccccc3)cc2)N(C)C)cc1 (stereo not given) | -2
Cc1ccc(NC(=O)C2C3C=CC4(O3)C2C(=O)N(CCCN2CCCCC2)C4C(=O)NC2CCCCC2)cc1Cl (stereo not given) | 1
O=C(N/N=C/c1cc(Cl)c(O)c(Cl)c1)c1cc2c(ccc3ccccc32)o1 | ?
C=CC[C@H](CC(=O)OC(C)(C)C)C(=O)OC[C@@H]1CCCN1C(=O)[C@H](CC=C)CC(=O)N[C@H](CO)Cc1ccccc1 | -5
O=C(COc1ncnc2ccccc12)NC1CCCC1 | -7
CN(C)S(=O)(=O)NC(=O)C1=C(N2CCCC2)COC1=O | 12
C[C@]12CCC3C(CC[C@H]4C[C@@H](O)CC[C@]34C)C1C[C@@H](N)[C@@H]2O (stereo not given in full) | -1
CCOc1cc(N2CCOCC2)c(OCC)cc1NC(=O)c1cc(S(=O)(=O)N2CCOCC2)ccc1F | 2
O=S(=O)(Nc1nc2ccc(Cl)cc2s1)c1cccs1 | 2
COc1ccc(CC(=O)Nc2cccc(Cl)c2C)cc1S(=O)(=O)N1CCOCC1 | -3
Cn1cccc1C(=O)OCC(=O)Nc1ccc2[nH]c(=O)[nH]c2c1 | 2
CC(C)c1ccccc1NC(=O)COC(=O)c1cccnc1 | -1
N#Cc1cccc(C(=O)N(CCc2ccccc2)Cc2cccs2)c1 | -7
CC(C)n1nc(C(=O)Nc2ccc3c(c2)OCO3)c2ccccc2c1=O | -2
O=C(NCC(c1ccco1)N1CCCCC1)c1cnc(Cl)c(Cl)c1 (stereo not given) | -2
CC(OC(=O)C1CCN(c2ccc(C(F)(F)F)cn2)CC1)C(=O)Nc1cccc([N+](=O)[O-])c1 (stereo not given) | 2
Oc1cc(-c2cccnc2)cc2cccnc12 | 100
CN(CC(=O)Nc1ccccc1Br)C(=O)Cn1[nH]c(=O)c2ccccc2c1=O | 1
Cc1ccccc1Cc1c(C)nc2nc(SCC(=O)NCCCN3CCCCC3)nn2c1C | -5

3 structures out of the list, sorted by SMILES length, lowest first:
molecule | Mtb bLac sens
O=S(=O)(Nc1nc2ccc(Cl)cc2s1)c1cccs1 | 2
CC(OC(=O)C1CCN(c2ccc(C(F)(F)F)cn2)CC1)C(=O)Nc1cccc([N+](=O)[O-])c1 (stereo not given) | 2
Cc1ccc(NC(=O)C2C3C=CC4(O3)C2C(=O)N(CCCN2CCCCC2)C4C(=O)NC2CCCCC2)cc1Cl (stereo not given) | 1
